# Mtb growth: M. tuberculosis H37Rv growth inhibitors, H37Rv strain (AID 1626) | M. tuberculosis H37Rv growth inhibition; higher % means a stronger effect | one-dose inhibition, % at 10 µM; IC50 in µM for titrated hits | 0.95% of 220,000 active;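 active = confirmed in a dose series; inconclusive = inhibition above 80% but not taken into the dose series; inactive = below 80% or under 30% at every dose of the series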;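 note: bacteria incubated seven days before Alamar blue readout; 0% = bacteria only wells and 100% = bacteria with antibiotic wells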
# Arbovirus inh: antivirals against arbovirus infection, primary screen, cell-based, full library, 10K replicate subset; 0.37% of 200,000 active; arbovirus infection cell-based antiviral screen; inhibition, % at 10 µM;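 active = inhibition from about 30%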;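 note: bluetongue infection of BSR cells; cell survival read as ATP light after 72 h; 0% = infected wells without compound and 100% = uninfected wells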
# YopH PTP inh: YopH tyrosine phosphatase inhibitors, primary screen, biochemical, fluorescence Ex485/Em525; YopH tyrosine phosphatase [Yersinia enterocolitica]; inhibition, %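 (about 10 µM by stock and volumes)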; 0.16% of 140,000 active; AID 898, 2007;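 active = inhibition of 50% or more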;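 note: controls were vehicle for no effect and minimum signal wells for full effect; inactives centre near -20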
# Mtb betalactam: beta-lactam sensitization of Mtb H37Rv, H37Rv; 0.27% of 330,000 active; M. tuberculosis H37Rv growth with meropenem, percent inhibition; hits of this screen are not shown here; inhibition, % at 25 µM; AID 434955, 2010;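 active = about 74% or more and at least 40 points above the plate without the antibiotic, then above 30% in a dose series; inconclusive = first-round hits that could not be retested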;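 note: growth measured after seven days incubation then overnight dye step; 0% = bacteria only wells and 100% = bacteria with antibiotic; twin plates without the antibiotic show which effects depend on it; some results filed as inactive read as strong as hits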
# RecA intein inh: Mtb RecA intein splicing inhibitors, primary screen, biochemical, fluorescence, HTS; 0.75% of 290,000 active; inhibition, %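 (about 9 µM by stock and volumes)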; cell-free RecA intein splicing; in the data active = inhibition above about 30%; inconclusive = no clear call, values can overlap the other calls;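 note: 0% = vehicle wells and 100% = reference inhibitor control wells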
# Target sequence (P9WHJ3 whole entry, looked up): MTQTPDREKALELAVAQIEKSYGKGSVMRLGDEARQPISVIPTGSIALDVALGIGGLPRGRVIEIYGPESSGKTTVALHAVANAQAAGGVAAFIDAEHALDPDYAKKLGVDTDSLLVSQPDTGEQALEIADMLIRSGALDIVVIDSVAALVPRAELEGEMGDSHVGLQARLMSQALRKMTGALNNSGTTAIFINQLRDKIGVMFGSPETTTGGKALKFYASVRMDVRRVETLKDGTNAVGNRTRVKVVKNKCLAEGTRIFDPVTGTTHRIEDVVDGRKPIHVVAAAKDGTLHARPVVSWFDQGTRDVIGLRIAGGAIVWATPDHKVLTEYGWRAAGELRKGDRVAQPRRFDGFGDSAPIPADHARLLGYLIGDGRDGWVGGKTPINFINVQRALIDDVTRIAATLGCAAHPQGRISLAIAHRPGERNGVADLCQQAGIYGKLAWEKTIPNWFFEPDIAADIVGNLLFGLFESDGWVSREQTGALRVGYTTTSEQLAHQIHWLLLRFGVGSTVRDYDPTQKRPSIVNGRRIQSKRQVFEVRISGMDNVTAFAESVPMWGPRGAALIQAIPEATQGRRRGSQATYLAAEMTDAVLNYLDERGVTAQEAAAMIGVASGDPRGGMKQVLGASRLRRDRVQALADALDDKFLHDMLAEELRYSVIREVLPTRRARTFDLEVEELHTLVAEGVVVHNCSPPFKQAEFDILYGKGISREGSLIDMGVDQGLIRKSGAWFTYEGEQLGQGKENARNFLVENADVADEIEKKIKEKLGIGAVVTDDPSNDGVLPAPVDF
# Arbovirus inh repeat: further read-out of Arbovirus inh, marked with its call; inhibition, %; measured here: 10K subset replicate screen; many hits read low in the repeat;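 first of two repeat runs on a subset; 0% = infected and 100% = uninfected wells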
# Starred values were filed as active, the others as inactive; ? = inconclusive; nt = no result given. These rows are one share of the data (hit frequency here may not be typical).
SMILES,Mtb growth,Arbovirus inh,YopH PTP inh,Mtb betalactam,RecA intein inh,others
Cc1ccc(NC(=O)CCSc2nnnn2-c2ccc3c(c2)OCO3)cc1C,59%,-12,9,59,6.7,
O=C(c1ccc(Cl)cc1)N1CCC(O)(CSc2ccc(Cl)cc2)CC1,0%,-26,-21,-6,1.8,
CCOC(=O)c1ccccc1N=Cc1c(O)c2ccccc2oc1=O,nt,nt,nt,7,-0.8,
CCOc1ccc(NS(=O)(=O)c2ccc(C(=O)NCc3ccncc3)cc2)cc1,nt,nt,nt,-2,-2.5,
CC(C)(C)NC(=S)NNC(=O)c1ccncc1,?,1,6,97,-4.1,
O=C(NCC(=O)N1CCN(c2ccccc2O)CC1)c1ccccc1,nt,nt,nt,4,-3.6,
CCC(OC(=O)c1nsc(Cl)c1Cl)C(=O)NCc1cccs1 (stereo not drawn),-3%,1,-15,3,-1.5,
Cc1nc(SC(C)C(=O)c2c(N)n(C)c(=O)n(C)c2=O)c2c(C)c(C)sc2n1 (stereo not drawn),nt,nt,nt,-3,-2.4,
COc1ccc(NC(=O)c2nc(S(=O)(=O)Cc3cccc(C)c3)ncc2Cl)c(OC)c1,nt,nt,nt,-3,3.6,
COc1ccc(CNC(=S)Nc2ccc3nc(N4CCOCC4)cc(C)c3c2)cc1,1%,-8,nt,54,-2.2,
CSc1c(C#N)c(N)nc2sc(C(=O)c3ccc(Cl)c(Cl)c3)c(N)c12,3%,nt,nt,17,-0.5,
COc1cc(NC(=O)C2CCCCC2)c(OC)cc1NC(=O)CCC(=O)NCc1ccco1,0%,-2,-41,7,nt,
CCCNC(=O)Cn1cnc2sc(C(=O)N3CCN(CCC)CC3)c(C)c2c1=O,0%,8,-14,-5,4.1,
O=C(Cc1ccc(Nc2nc3ccc(Br)cc3[nH]2)cc1)NCCc1cccs1,36%,-29,6,95,5.4,
O=C(c1cc(C2CC2)on1)N1CCCC(N2CCN(c3cccc(C(F)(F)F)c3)CC2)C1 (stereo not drawn),nt,nt,nt,45,1.5,
Cc1ccc(N2CC(C(=O)NCC3CCCO3)CC2=O)cc1Cl (stereo not drawn),-3%,6,-21,-14,-1.9,
N=C(N)SCc1ccccc1Cl,3%,0,-32,-3,3.7,
CNc1nc(C)cc(C)c1S(=O)(=O)c1ccc(C)cc1,-15%,8,-14,6,1.0,
CC1CCN(c2ncnc3c2cnn3Cc2ccc(Cl)cc2)CC1,-6%,0,-33,2,nt,
Cc1cc(OCC(=O)Nc2cccnc2)c2c(C)c(C)c(=O)oc2c1,nt,nt,nt,5,-1.5,
O=C(NCCS(=O)(=O)N1CCN(c2ccccc2F)CC1)C1CC(=O)N(c2ccc(F)cc2)C1 (stereo not drawn),nt,nt,nt,-3,-1.2,
COC(=O)c1cc(N=CC2=C(O)CC(C)(C)CC2=O)cc(C(=O)OC)c1,-3%,4,-21,3,0.5,
CC(=O)Nc1ccc2c(CSc3nncs3)cc(=O)oc2c1,8%,nt,nt,-9,-0.6,
CC(Sc1nncn1C)C(=O)Nc1ccc(S(N)(=O)=O)cc1 (stereo not drawn),-8%,nt,nt,0,-2.8,
COc1ccc(-[n+]2c(C)cc(/C=C3\Sc4ccccc4N3C)cc2C)cc1,?,-39,nt,100,-11,
O=C(Nc1ccc(C(=O)O)cc1)/C(=C\C=C\c1ccccc1)NC(=O)c1ccccc1Br,nt,nt,nt,8,2.1,
Cc1ccc(NC(=O)N[C@@H](CC(C)C)C(=O)O)c(C)c1,-4%,nt,nt,-1,0.5,
O=C(Cn1ccc([N+](=O)[O-])n1)c1ccccc1,-6%,-4,nt,-6,-1.5,
COc1ccc(NC(=O)CN(C)C(=O)c2cccc(S(=O)(=O)Nc3ccc(OC)cc3)c2)cc1,nt,nt,nt,6,-1.0,
Cc1cccn2c(NCC3CCCO3)c(C(C)C)nc12 (stereo not drawn),-11%,2,-2,0,-4.0,
CCOc1ccccc1OCCOc1ccccc1CC,7%,0,-17,8,7.8,
C=CC1CN2CCC1CC2C(OC(C)=O)c1ccnc2ccc(OC)cc12 (stereo not drawn),-2%,nt,nt,0,nt,
CCCCc1nc2sc3c(=O)[nH]cnc3c2c2c1CCCC2,-11%,nt,nt,6,-1.4,
COc1cc(C2NC(=O)NC(C)=C2C(=O)OCC2CCCCC2)cc(Cl)c1O (stereo not drawn),nt,nt,nt,-5,20,
O=C(CN1CCN(S(=O)(=O)c2ccccc2)CC1)NCCc1ccccc1,nt,nt,nt,-14,-1.5,
CC1(C)CC(=O)c2cc(OCC(=O)N3CCN(c4ccccc4F)CC3)ccc2O1,-7%,6,-40,0,-8.7,
O=C(C1COc2ccccc2O1)N1CCN(c2nc3ccccc3s2)CC1 (stereo not drawn),nt,nt,nt,1,3.3,
S=C(Nc1ccccc1Cl)N1CCN(Cc2ccccc2)CC1,2%,4,-8,0,-1.5,
Cc1ccc(NC(=S)NC2CCCC2)cc1,6%,2,-17,-14,2.8,
O=C(Nc1cccc(O)c1)c1c(O)c2ccccc2[nH]c1=O,nt,nt,nt,8,-1.4,
COc1ccccc1NC(=O)COC(=O)Cc1ccc(S(=O)(=O)N2CCCCC2)s1,9%,2,nt,3,3.3,
CC(=O)c1ccc(N2CCN(C(=O)c3cccs3)C(C)C2)c(F)c1 (stereo not drawn),nt,nt,nt,-3,1.8,
Cc1cc(=O)oc2cc(OCCSCCN3CCCCC3)ccc12,-11%,nt,nt,-6,-0.2,
O=C(CNC(=O)c1ccc(Br)cc1)NCC(=O)OCC(=O)c1ccc([N+](=O)[O-])cc1,-4%,-5,-14,-4,-1.7,
CC1(CCC#N)N=C(SCCC#N)N(c2ccccc2)C1=O (stereo not drawn),1%,9,4,-4,-2.1,
COc1ccc(C(CNC(=O)COc2ccccc2OC)N2CCCCC2)cc1 (stereo not drawn),nt,nt,nt,2,0.1,
CC(C)N(C(=O)CSc1nnnn1C1CCCC1)C(C)C,-6%,0,7,-6,0.9,
C=C(C)Cn1c(CNC(C)=O)nc2ccccc21,-3%,7,-26,-8,-1.0,Arbovirus inh repeat=-3
CC(C)C(OC(=O)c1ccco1)C(=O)NCc1ccccc1 (stereo not drawn),-7%,-7,-24,-2,-1.2,
O=C(COC(=O)CCC(=O)c1cccs1)NCc1ccc(Cl)cc1,-10%,3,nt,-2,-1.8,
CCOC(=O)c1c(C)[nH]c(C)c1C(=O)CSc1nnc(N)s1,4%,12,nt,0,-4.4,
COc1ccc(C(=O)c2sc3nc(-c4ccccc4)ccc3c2N)cc1OC,-9%,-6,-36,1,-2.6,
O=C(NCCN1CCN(S(=O)(=O)c2ccc(F)cc2)CC1)C(=O)NCc1ccccc1,nt,nt,nt,-1,-1.2,
CCOc1ccc(C(=O)NCC(C)NC(=O)c2ccc(OCC)cc2)cc1 (stereo not drawn),nt,nt,nt,0,-0.7,
CCOc1cccc(C(=O)Nc2ccccc2C(=O)N2CCOCC2)c1,nt,nt,nt,0,1.4,
Cc1cc(C)n2c(SCC(=O)Nc3ncc(C(F)(F)F)cc3Cl)nnc2n1,-9%,8,2,-10,nt,
O=C(c1ccccc1SCc1ccccc1)N1CCOCC1,3%,3,nt,-2,-1.2,
COc1ccc(C(=O)CCc2ccccc2)c(O)c1,nt,nt,nt,-2,9.8,
Cc1nc(SCC(=O)N2CCOCC2)c2ccsc2n1,-12%,13,-43,-1,3.6,
CC(C)(C)c1cc(CN(CCO)CCO)c(O)c(C(C)(C)C)c1,9%,nt,nt,-11,-3.5,

# Filtered by structure: those above containing fluorine
SMILES,Mtb growth,Arbovirus inh,YopH PTP inh,Mtb betalactam,RecA intein inh,others
O=C(c1cc(C2CC2)on1)N1CCCC(N2CCN(c3cccc(C(F)(F)F)c3)CC2)C1 (stereo not drawn),nt,nt,nt,45,1.5,
O=C(NCCS(=O)(=O)N1CCN(c2ccccc2F)CC1)C1CC(=O)N(c2ccc(F)cc2)C1 (stereo not drawn),nt,nt,nt,-3,-1.2,
CC1(C)CC(=O)c2cc(OCC(=O)N3CCN(c4ccccc4F)CC3)ccc2O1,-7%,6,-40,0,-8.7,
CC(=O)c1ccc(N2CCN(C(=O)c3cccs3)C(C)C2)c(F)c1 (stereo not drawn),nt,nt,nt,-3,1.8,
O=C(NCCN1CCN(S(=O)(=O)c2ccc(F)cc2)CC1)C(=O)NCc1ccccc1,nt,nt,nt,-1,-1.2,
Cc1cc(C)n2c(SCC(=O)Nc3ncc(C(F)(F)F)cc3Cl)nnc2n1,-9%,8,2,-10,nt,

# The list continues:
SMILES,Mtb growth,Arbovirus inh,YopH PTP inh,Mtb betalactam,RecA intein inh,others
O=c1c2cnn(-c3ccccc3)c2nc(-c2cccs2)n1-c1ccc(Cl)cc1,-7%,-6,-26,-3,1.4,
CCC/C(=N\O)c1c[nH]c2ccccc12,4%,4,-38,0,0.3,
Cc1ccc(NC(=O)C2(c3ccccc3)CC2(Cl)Cl)cc1C (stereo not drawn),nt,-8,-8,97,9.9,
C=CC1=C2C=C(C3CC3)N(CCCN(CC)CC)C=C2C(=O)C(C)(OC(=O)c2ccco2)C1=O (stereo not drawn),-2%,nt,nt,-5,12,
NC(=NC1CCCCC1)c1ccc(Cl)cc1,0%,-2,nt,-9,-0.1,
COC(=O)Cn1c(=NC(=O)c2ccc(Cl)s2)sc2cc(C)ccc21,-2%,-5,-13,2,-2.0,
Fc1cccc(NCCc2c[nH]c3ccccc23)n1,nt,nt,nt,3,5.9,
COc1ccc(CN2CCNC(=O)C2CC(=O)N(C)Cc2nccn2C)cc1OC (stereo not drawn),5%,5,nt,6,-0.6,
COc1cccc(C2=Nn3c(nnc3-c3ccccc3O)SC2)c1,-4%,-4,29,7,0.7,
COc1ccc(-c2cc(=Nc3ccc(C(=O)O)cc3)c3cc(C)ccc3o2)cc1,0%,22,nt,12,3.3,
COc1ccccc1Cn1nnc2c(=O)[nH]c(C3CCN(C(=O)c4ccccc4Cl)CC3)nc21,14%,7,2,-8,-4.6,
CCN(CC)CCn1c(N)nc2ccccc21,-10%,nt,nt,-1,-1.0,
Cc1coc(=N)n1CC(=O)c1ccc(Cl)cc1,-2%,2,nt,nt,nt,
CC(=O)c1ccc(NC(=S)N(CCCN(C)C)Cc2ccccc2)cc1,nt,nt,nt,-5,2.3,
CCOC(=O)c1cc(NC(=O)Nc2ccc(Br)cc2)c(C)nc1C,11%,-10,nt,35,4.6,
COC(=O)c1ccccc1NC(=O)NCc1c(C)nn(C)c1C,-5%,-9,nt,-6,-4.4,
COc1ccc(CC(=O)O/N=C(\N)c2ccccn2)cc1OC,nt,nt,nt,5,-2.7,
CC(C(=O)NC1CCCCC1)N1C(=O)c2cccc3cccc1c23 (stereo not drawn),nt,nt,nt,-4,-18,
CCOC(=O)c1cc(-c2ccccc2)n(CC(=O)Nc2ccc(OC)cc2)c1C,5%,5,-38,-1,-4.0,
COc1ccc(C(=O)Oc2cc(/C=N/NS(=O)(=O)c3ccc(C)cc3)ccc2OC)cc1,nt,-6,0,-5,-2.5,
Cc1ccc(Cl)cc1NC(=O)COC(=O)c1ccccc1O,-9%,nt,nt,-1,1.2,
C=CCOc1ccc2nnc(C)n2n1,-3%,8,-4,3,-1.4,
CCCC(=O)Nc1nnc(-c2ccc(Cl)s2)o1,13%,-2,nt,0,1.3,Arbovirus inh repeat=-8
O=c1c2ccccc2ncn1CCCSc1ccccc1,-9%,-4,-2,1,-3.8,
CN1CCN(C(=O)c2cc3nc(-c4ccc(F)cc4)cc(C(F)(F)F)n3n2)CC1,-2%,6,-31,1,-1.8,
CCC(C)c1ccccc1NC(=O)c1[nH]c(C)c(C(C)=O)c1C (stereo not drawn),nt,nt,nt,-3,-1.6,
COc1ccc(-c2c3c(nc4sc(C(=O)Nc5cc(C)on5)c(N)c24)CCC3)cc1,-2%,2,31,-5,2.1,
COc1ccccc1CNC(=O)C(C)NS(=O)(=O)c1ccc(C)cc1 (stereo not drawn),-4%,3,12,1,2.5,
O=S(=O)(c1ccc2ccccc2c1)n1cnc2ccccc21,-2%,-2,-25,-8,14,
Cc1ccc(C(=O)O)cc1NC(=O)CCc1ccccc1,5%,3,nt,-7,0.0,
CC/C(C)=C1\SC(N2CCN(C(C)=O)CC2)=NC1=O,0%,-2,-7,-4,1.5,
CC(=O)Nc1cc(S(=O)(=O)Nc2ccccc2C)c(C)cc1C,3%,-2,-23,3,-1.0,
CC1CCc2c(C(=O)Nc3ccccn3)csc2C1 (stereo not drawn),4%,nt,nt,15,4.4,
COCCCn1c(SCC(=O)Nc2nnc(C)s2)nnc1-c1ccoc1C,-1%,-3,-36,-2,-0.9,
CC(=O)Nc1ccc(SCC(=O)O)cc1,5%,-4,nt,-10,-1.7,
